Source: PubChem
TRPML1 agonist: agonists of human TRPML1 channel. actives 0.12% (n = 410,000). TRPML1-expressing cells, Ca2+ dye fluorescence, FDSS; host cell line not named in the record; reference of the full effect not given here. activation, % (test concentration not listed). Q9GZU1; in the data active = activation above about 50%; inconclusive = about 30% to 50%; inactive = below about 30%; note: 0% is about no effect; the text of the record puts the active cut at 80%
Target sequence (Q9GZU1 whole entry, looked up): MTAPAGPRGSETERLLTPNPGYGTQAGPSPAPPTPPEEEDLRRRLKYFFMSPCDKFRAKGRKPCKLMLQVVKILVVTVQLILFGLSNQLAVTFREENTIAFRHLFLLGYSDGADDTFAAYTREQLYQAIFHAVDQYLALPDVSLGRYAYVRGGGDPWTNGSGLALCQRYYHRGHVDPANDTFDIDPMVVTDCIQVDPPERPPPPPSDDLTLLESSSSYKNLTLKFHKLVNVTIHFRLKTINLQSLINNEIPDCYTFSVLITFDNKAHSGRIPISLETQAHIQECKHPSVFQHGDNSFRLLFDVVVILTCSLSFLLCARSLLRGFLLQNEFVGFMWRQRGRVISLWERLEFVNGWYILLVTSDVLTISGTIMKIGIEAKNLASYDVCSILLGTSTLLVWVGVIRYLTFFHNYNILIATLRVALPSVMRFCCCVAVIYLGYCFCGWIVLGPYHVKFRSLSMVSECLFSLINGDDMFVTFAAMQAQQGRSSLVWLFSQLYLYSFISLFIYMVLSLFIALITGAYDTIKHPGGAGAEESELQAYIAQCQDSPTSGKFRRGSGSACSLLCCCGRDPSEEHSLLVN
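TRPML1-DL cells, Tet-induced overnight (~16 h, 37 degrees C), loaded 45-90 min at room temperature with Ca8 no-wash calcium dye plus quencher. FDSS fluorescence: 10 s baseline, compound pin-transfer, 110 s agonist read, then EC80 54-4 (4uM final) and 110 s antagonist read.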
D2 potentiator: human D2 receptor positive allosteric modulation; actives 0.23% (n = 360,000); potentiation, % (test concentration not listed); P14416; AID 624464; DiscoveRx D2 beta-arrestin cells, luminescence, 90 min; 100% = 57 uM dopamine signal; active = potentiation of 50% or more; inconclusive = 30% to 50%; inactive = 30% or less;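 note: compound concentration not given in the record; tested on top of an EC20 dose of dopamine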
Target sequence (P14416 whole entry, looked up): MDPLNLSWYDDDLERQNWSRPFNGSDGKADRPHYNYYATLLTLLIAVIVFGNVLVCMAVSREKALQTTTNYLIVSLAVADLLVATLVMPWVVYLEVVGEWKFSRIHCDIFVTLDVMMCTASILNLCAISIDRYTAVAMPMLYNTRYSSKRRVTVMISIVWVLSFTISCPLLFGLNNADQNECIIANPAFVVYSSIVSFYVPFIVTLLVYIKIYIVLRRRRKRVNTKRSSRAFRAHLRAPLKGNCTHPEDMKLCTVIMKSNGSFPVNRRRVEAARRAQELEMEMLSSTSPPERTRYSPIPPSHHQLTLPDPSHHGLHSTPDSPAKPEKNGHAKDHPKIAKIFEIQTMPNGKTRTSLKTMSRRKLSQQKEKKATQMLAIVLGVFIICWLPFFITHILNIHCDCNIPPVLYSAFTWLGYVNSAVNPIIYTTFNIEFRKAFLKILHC
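D2 cells co-treated with compound plus 50 nM dopamine (EC20) for 90 min at 37 deg C to detect potentiation. Beta-arrestin recruitment was read as enzyme-fragment luminescence after 1 h at ambient temperature. Full response was set by 57 uM dopamine.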
TRPML1 blocker: human mucolipin-1 channel inhibition | TRPML1-inducible cells, Ca2+ dye fluorescence, FDSS; hits give low values; inhibition of EC80 agonist-evoked calcium signal | activity change, negative = inhibition, % (test concentration not listed) | actives 0.02% (n = 390,000) | AID 624415; in the data active means activity change below about -50%; inconclusive means about -30% to -50%; inactive means above about -30%;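 note: stimulus is agonist 54-4 at its EC80 concentration; % is set by controls: 0 for no effect and ±100 for the full control effect; compound concentration not given in the record; the text of the record puts the active cut at -80%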
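TRPML1-DL cells, Tet-induced overnight (~16 h, 37 °C) at 1,500 cells/well, were loaded with Ca8 no-wash dye plus quencher for 45-90 min at room temperature. Compounds were pinned during FDSS kinetic reading; agonist 54-4 at EC80 (4 uM final) then added.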
PINK1 modulator: changes PINK1 expression | PINK1 immunofluorescence, high-content cytometry, 24 h | Potency, µM (highest dose often 76.6 µM), for the others: top-dose activation (PINK1 increase), most hits filed as activators | actives 0.2% (n = 410,000) | AID 624263; active = well fitted activation curve with a large enough effect; inconclusive = small, poorly fitted or top-dose-only effect; inactive = flat fitted curve, though single readings scatter; cell line not stated here;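 note: potency is the fitted concentration of half-maximal effect; % of control where 0% means no effect; nearly all actives have a fitted effect of over 65% in size; a mitochondrial uncoupler was the plate control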
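Cells are seeded, rested 12 hours, then given compound at five concentrations or DMSO for 24 hours. After fixation, blocking and antibody staining, PINK1 amount and mitochondrial localization are scored; CCCP serves as control.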
Six1-Eya2 blk: inhibitors of human Six1/Eya2 interaction. activity change, % (no concentration beside the values). AlphaScreen GST-Six1/His-Eya2 binding, biochemical; hits give low values; control for the full effect not named in the record. actives 0.56% (n = 360,000). Q15475+O00167; in the data active = activity change below about -65%; inconclusive = about -30% to -65%; inactive = above about -30%; note: % is set by controls: 0 for no effect and ±100 for the full control effect; compound concentration not given in the record
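AlphaScreen luminescence read after one hour at 37 °C in darkness. Pin-transferred compounds met GST-Six1 and His-Eya2 protein (5X stock 250 nM/500 nM) plus glutathione donor and Ni-chelate acceptor beads (5X, 50 ug/mL).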
D2 agonist: human D2 receptor agonism in beta-arrestin assay. actives 0.084% (n = 360,000). P14416. activation, % (no concentration beside the values). AID 624465. DiscoveRx PathHunter D2 beta-arrestin, luminescence, 90 min; 100% = 57 uM dopamine signal; in the data active = activation above about 40%; inconclusive = about 15% to 40%; inactive = below about 15%; note: compound concentration not given in the record; the text of the record calls up to 30% inactive
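Agonist mode: compounds alone added to overnight-plated D2 PathHunter cells for 90 min at 37 C, with 57 uM final dopamine (EC100) defining full response. Beta-arrestin recruitment detected by chemiluminescent reagent, read after 1 h at ambient temperature.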
* hit, by the source's call; u = inconclusive; x = not tested or not shown; [ ] = remark or other dose.

SMILES	TRPML1 agonist	D2 potentiator	TRPML1 blocker	PINK1 modulator	Six1-Eya2 blk	D2 agonist
COc1ccc2c(CC(=O)N3CCN(S(=O)(=O)c4ccc(F)cc4)CC3)coc2c1	-0.4	-5	-6	0.2%	-6	-5.6
CC(C)c1ccc(-c2nc(C(N)=O)c3c(n2)n(-c2ccc4c(c2)OCO4)c(=O)n3C)cc1	4.3	x	-1	-0.8%	x	x
COc1cccc(-c2nc3n(n2)C(c2ccccc2Cl)C(C(N)=O)=C(C)N3)c1 (stereo unspecified)	-0.1	-1	-1	3.2%	-3	-1.1
COc1ccccc1COc1ccc2c(C)c(CC(=O)O)c(=O)oc2c1C	3.3	0	16	-1.6%	-3	-0.7
COc1ccc(-n2c(C)nc3cc(C(=O)NC4CCCCCC4)ccc32)cc1	1.5	x	7	-0.2%	x	x
Cc1cc(=O)oc(C)c1C(=O)O	-0.3	-1	3	4.4%[38.3 µM]	0	2.0
CCOc1ccc(-n2cc(-c3ccccc3)c3c(NCc4ccccc4)ncnc32)cc1	2.0	x	35	1.0%	x	x
CCn1c(C)nc2c(=O)oc3ccccc3c21	-0.7	-10	14	1.2%[38.3 µM]	-23	-1.5
Cc1cc(C)n(-c2ccc(F)cc2CN2CCN(Cc3ccccc3)C(CCO)C2)n1 (stereo unspecified)	-0.5	-8	13	-0.8%	-1	-0.4
CC(Cc1c[nH]c2ccccc12)NC(=O)OCCCl (stereo unspecified)	0.3	-7	8	0.0%	-2	-4.2
O=C(C1=C[C@@H](c2ccc3c(c2)OCO3)C[C@@H](OCCCCO)O1)N1CCOCC1	-0.3	-9	11	-0.6%	12	-0.2
COc1ccc(NC(=S)N2CCC(c3nc4ccc(Cl)cc4[nH]3)CC2)c(OC)c1	0.7	-13	4	1.8%[38.3 µM]	-10	-0.7
COC(=O)c1cccc(OCC(O)Cn2ccnc2)c1 (stereo unspecified)	-0.8	-3	7	4.3%	-6	-1.7
Cc1cc(C)cc(OCC(=O)N(Cc2ccco2)c2c(N)n(Cc3ccccc3)c(=O)[nH]c2=O)c1	-0.5	6	12	0.4%	11	-1.5
CCCCNC(=O)c1c(C)cc(=O)oc1C	0.8	-12	9	-0.2%[38.3 µM]	1	-0.4

The closing 6 compounds of the section above come first, to join the parts:
SMILES	TRPML1 agonist	D2 potentiator	TRPML1 blocker	PINK1 modulator	Six1-Eya2 blk	D2 agonist
CC(Cc1c[nH]c2ccccc12)NC(=O)OCCCl (stereo unspecified)	0.3	-7	8	0.0%	-2	-4.2
O=C(C1=C[C@@H](c2ccc3c(c2)OCO3)C[C@@H](OCCCCO)O1)N1CCOCC1	-0.3	-9	11	-0.6%	12	-0.2
COc1ccc(NC(=S)N2CCC(c3nc4ccc(Cl)cc4[nH]3)CC2)c(OC)c1	0.7	-13	4	1.8%[38.3 µM]	-10	-0.7
COC(=O)c1cccc(OCC(O)Cn2ccnc2)c1 (stereo unspecified)	-0.8	-3	7	4.3%	-6	-1.7
Cc1cc(C)cc(OCC(=O)N(Cc2ccco2)c2c(N)n(Cc3ccccc3)c(=O)[nH]c2=O)c1	-0.5	6	12	0.4%	11	-1.5
CCCCNC(=O)c1c(C)cc(=O)oc1C	0.8	-12	9	-0.2%[38.3 µM]	1	-0.4
O=C(O)c1ccc(Cl)c(S(=O)(=O)N(Cc2ccccc2)c2ccc(F)cc2)c1	x	-9	x	-0.8%	3	-7.2
Cn1cc(C(=O)C(=O)N2CCOCC2)c2ccccc21	-0.3	-8	-2	-0.5%	-12	3.7
Cc1ccccc1OCCC(=O)Nc1ccc(N2CCOCC2)cc1N1CCOCC1	-0.2	-14	-3	-0.6%	4	-4.1
OC(c1ccc(Cl)cc1)c1ncc(-c2cccc(C(F)(F)F)c2)[nH]1 (stereo unspecified)	12	-3	x	u	5	7.1
O=C(NC1CC1)C1Nc2ccc(OC(F)(F)F)cc2C2C=CCC12 (stereo unspecified)	0.2	-7	27	0.8%	6	-1.5
CCN1C(=O)[C@@H]2[C@@H](c3ccc(-c4ccccc4)cc3)N3CCC[C@@]3(C(=O)OC)[C@@H]2C1=O	-0.6	-5	12	-0.9%	-8	-6.9
CC(NC(=O)C1CCN(C(=O)c2ccc(F)cc2)CC1)c1ccc(-n2ccnc2)cc1 (stereo unspecified)	-0.2	-8	-7	-1.2%	-2	6.1
O=C(CSc1nc(-c2ccccc2)cs1)N1CCc2ccccc21	0.0	7	-7	x	-1	-3.7
Clc1cc(Cl)c2nc(N3CCCCC3)sc2c1	8.0	-9	1	4.7%	33	-2.9
Cc1ccc(-c2cc(C(=O)NN)n[nH]2)o1	0.5	-3	5	-2.2%	-4	-1.2
COc1ccc(Cl)c(CNC[C@H]2O[C@@H](n3cnc(C(N)=O)n3)[C@H](O)[C@@H]2O)c1	-0.8	-1	4	0.1%	-2	-1.3
CC(C(=O)N1CCN(C(=O)c2ccco2)CC1)n1sc2ccccc2c1=O (stereo unspecified)	0.3	-3	19	-1.5%	-1	-5.5
O=C(O)COc1ccc(Cl)cc1CO	-0.4	-3	3	-0.1%[38.3 µM]	2	-1.2
CN1C(=O)N(c2ccccc2)C(Nc2nncs2)C1(C)C (stereo unspecified)	0.6	-18	-7	-1.9%	3	-5.2
C=CCn1c(C)cc(C(=O)COC(=O)c2n[nH]c(=O)c3ccccc23)c1C	2.5	0	-18	0.2%	1	-5.7
Cn1nc(C(F)(F)F)c(-c2cccc(C(F)(F)F)c2)c1NC(=O)Nc1ccc(F)cc1	1.9	-5	16	4.2%	-1	5.8
C=CCn1c(SCc2cc(=O)n3ccsc3n2)nc2cc(Cl)ccc2c1=O	0.0	1	26	-1.6%	1	-4.0
C/C(=N\NC(=O)COc1ccc(C(C)(C)C)cc1)c1ccc(-n2ccnc2)cc1	0.5	-25	34	-2.5%	-13	0.4
N#CCCN(C(=O)Nc1ccc(Cl)cc1)c1ccccc1	1.5	7	-1	-0.3%	-1	2.5
CC(C)n1nccc1N(Cc1ccc(Cl)cc1)S(=O)(=O)c1ccccc1	-0.7	-9	75	u	-1	-4.5
COc1ccc(OC)c(CNC(=O)c2c(C)oc3ncn(CC(C)C)c(=O)c23)c1	-0.4	x	2	0.1%	x	x
COc1ccc(N=C2S/C(=C\c3ccc(Cl)c([N+](=O)[O-])c3)C(=O)N2CCN(C)C)cc1	-0.2	-59	16	-1.3%	-16	-9.1
O=C(c1cnccn1)N1CCN(c2ccccc2F)CC1	-0.2	6	-4	7.1%	4	-1.7
c1ccc2[nH]c(SCc3cscn3)nc2c1	-0.9	-10	-7	0.8%	0	-1.1
CCOc1cccc(N(C(=O)C2COc3ccccc3O2)C(C(=O)NC2CCCCC2)c2ccc(O)cc2)c1 (stereo unspecified)	3.2	4	3	8.7%	10	-5.0
CC1CCCC(C)N1S(=O)(=O)c1ccc(NC(=O)c2ccccc2C(=O)N2CCOCC2)cc1 (stereo unspecified)	-0.4	-8	2	-1.6%[38.3 µM]	-1	2.6
O=C(Nc1ccc(-c2noc(-c3ccccc3F)n2)cc1)c1cccs1	-0.5	1	-8	14%	3	0.2
O=C(Nc1cccc(S(=O)(=O)N2CCCCC2)c1)Nc1ccc(Cl)cc1Cl	-0.8	-1	-17	u	-9	3.4
O=C(NCC(c1ccco1)N1CCN(c2ccccc2)CC1)c1ccco1 (stereo unspecified)	-0.3	10	20	1.4%	-10	13
C=CCSC1=N/C(=C/c2ccsc2)C(=O)N1c1ccccc1	0.4	0	-18	-2.1%	8	0.9
Fc1ccc2c(c1)C(c1ccncc1)=NNC(c1cccnc1)=N2	1.0	-1	16	x	7	-0.4
O=C(Nc1c(C(=O)N2CCN(c3ccccc3F)CC2)oc2ccccc12)c1ccccc1F	-0.2	x	2	5.0%	x	x
N#C/C(=C/c1ccccc1)C(=O)OCC(=O)Nc1ccccc1[N+](=O)[O-]	0.0	-2	20	0.3%	0	0.2
CN(C)c1ccc(C(=O)C(=O)c2ccccc2)cc1	x	-4	x	0.2%	-10	-4.6
Cc1[nH]n(-c2ccccc2)c(=O)c1N=Nc1ccccc1C(=O)N1CCCCC1	0.2	-16	24	0.0%	1	-5.7
O=C(CSc1nnc(-c2ccncc2)n1-c1ccccc1)N1CCN(c2ccc(Cl)cc2)CC1	-0.2	-11	5	7.2%	-4	-4.9
Cc1cccc(Cn2c(=O)n(Cc3ccco3)c(=O)c3ccccc32)c1	1.8	-10	51	2.4%	6	-5.3
COc1cc(CCC(=O)Nc2nccs2)cc(OC)c1OC	1.8	2	17	-2.6%	3	5.5
COc1ccc(-c2nc(NC(=O)c3c(C)noc3C)sc2C)cc1	0.4	27	10	8.6%	-11	0.7
Cc1ccc(S(=O)(=O)NCc2csc(C)n2)cc1	-0.2	-3	2	-0.5%	2	-7.9
Cc1oc2ccc(O)c(CN3CCN(Cc4ccccc4)CC3)c2c1C(=O)Nc1ccccc1	-0.8	x	-23	0.6%	x	x
COc1ccc(-c2nn(-c3ccccc3C)cc2CNCCc2cnc[nH]2)cc1F	-0.2	-20	-2	1.3%	-21	3.2
O=C(NCCCCc1ccccc1)Nc1ccc(F)cc1F	0.9	-13	8	1.1%	-3	1.0
Cn1cc(CNC(=O)Nc2ccc3c(c2)OCO3)cn1	0.2	4	22	-0.5%	11	-0.7
O=C1c2ccccc2C(=O)N1OCCOCCOCCBr	-0.2	-8	22	x	5	0.8
COc1cc(C2C(C(=O)c3cccs3)=C(O)C(=O)N2CCN2CCOCC2)ccc1OCCC(C)C (stereo unspecified)	-0.3	-9	-13	2.3%	2	-11
O=C(c1ccc2c3c(cccc13)CC2)C1CCCN(C(=O)c2ccc[n+]([O-])c2)C1 (stereo unspecified)	0.3	-5	-12	1.2%	3	2.5
CCS(=O)(=O)Nc1cccc(-c2ccc3nnc(-c4cccnc4)n3n2)c1	0.8	17	-20	-1.4%	-67*	0.5
CCS(=O)(=O)Nc1ccc(C2=NN(C(=O)c3ccccc3)C(c3cccs3)C2)cc1 (stereo unspecified)	2.2	3	43	-0.4%	-1	5.6
CN(c1ccc([N+](=O)[O-])cc1)c1cc2c(c3c1ccn3C)C1CCC2C1 (stereo unspecified)	-0.6	1	x	u	-19	-2.2
O=C1CCCN2N=C(SCC(=O)Nc3ccc([N+](=O)[O-])cc3)SC2=N1	-1.2	-5	-1	5.6%	0	-8.1
COc1ccccc1C=CC(=O)C=Cc1ccccc1OC	3.9	-10	-5	-5.6%	0	-3.6
C=C1C(=O)OC2CC1C(O)CC(C)=CCCC(C)=CC(O)CC2C (stereo unspecified)	1.1	-20	4	-5.4%	4	-4.4
Cc1noc(C)c1COC(=O)c1ccccc1Oc1ccccc1	1.9	-13	21	0.5%	26	1.7
Cc1cc(C)cc(NC(=O)Cn2c(=O)oc3cc(S(=O)(=O)N4CC(C)CC(C)C4)ccc32)c1 (stereo unspecified)	0.9	5	38	3.6%	-1	0.0
CS(=O)(=O)N(CC(=O)NCCSCc1ccccc1)c1ccccc1	-0.5	-1	10	-1.2%	1	0.3
O=C(O)C(Cc1ccccc1)N1Cc2ccccc2C1=O (stereo unspecified)	0.8	-8	8	-0.9%	4	-0.6
